Bioassay records: PubChem, National Center for Advancing Translational Sciences (NCATS)
RE007 growth inh = qHTS Assay for Inhibitors of the HIV-1 protein Vpr; S. pombe RE007 Vpr strain, BacTiter-Glo ATP luminescence, 24 h; control for the full effect not named in the record; Potency, µM (doses to about 92.2 µM), without a hit: at the top dose activity change, negative = less growth; 360,000 tested, 0.21% active; AID 651644, 2012; active = well fitted falling curve with a large enough effect; inconclusive = small, poorly fitted or top-dose-only effect; inactive = no such curve, though single readings can be large or run the other way;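 further: nearly all actives have a fitted effect of over 50% in size; the assay follows cell death caused by Vpr and the record does not say whether a fall means rescue or toxicity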
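Fission yeast strain RE007, carrying one chromosomally integrated HIV-1 vpr copy, was seeded at OD 0.01 in PMG+AL medium with 23 nL pinned compound. After 24 h at 30 °C and 99% humidity, viability was read by BacTiter-Glo luminescence.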
2A StopGo = High Throughput Screening for Foot and Mouth Disease Virus Antivirals; Potency, µM (top dose mostly 57.9 µM), inactives show at the highest dose signal change, negative = less light; 410,000 tested, 1.2% active; human cells with a luciferase reporter of 2A StopGo recoding; control for the full effect not named in the record; AID 1159524, 2015; active = well fitted falling curve with a large enough effect; inconclusive = small, poorly fitted or top-dose-only effect; inactive = no such curve, though single readings can be large or run the other way; tested in HEK293T cells; further: nearly all actives have a fitted effect of over 45% in size; luciferase light after 4 h
* = called active by the depositor; ? = inconclusive; [ ] = another dose, or the depositor's remark. On the % scale 0 is the no-effect control and ±100 the full control effect; potency means the concentration at half of the fitted maximal effect.

Structure | RE007 growth inh | 2A StopGo
CCCS(=O)(=O)NC(=O)C1(C)CCCN(C(=O)c2cccnc2Oc2ccccc2)C1 (stereo not given) | 13% | 4%
Cc1ccc(S(=O)(=O)N(C)C[C@H]2Oc3cc(C#CC4CCCC4)ccc3S(=O)(=O)N([C@H](C)CO)C[C@H]2C)cc1 | 10% | 30%[activator]
OC[C@H]1O[C@@H](c2nc(-c3ccc4[nH]ccc4c3)no2)[C@H](O)[C@@H](O)[C@H]1O | -14%[18.4 µM] | -6%
CC1(C(=O)NCc2ccccc2)CCC(=O)N1C1CC1 (stereo not given) | 16% | -4%
O=C(Cc1ccc(NC(=O)C2CCCN(C(=O)C3CCC3)C2)cc1)Nc1cccc(C(=O)N2CCCCC2)c1 (stereo not given) | -1% | -17%
CC(C)NC(=O)N[C@H]1C=C[C@H](CC(=O)NCc2ccc(Oc3ccccc3)cc2)O[C@@H]1CO | 6% | -23%
O=C(NC(=S)N1CCN(c2ccc(F)cc2)CC1)c1ccccc1 | 5% | -18%
CCCNC(=O)N1C2=NC(C(=O)OC)=C(C(=O)OC)[C@@H]3N(Cc4ccccc4)c4ccccc4[C@]23C[C@H]1CO | -15% | -23%
CCCCN(C=O)c1c(CC)nc2ccc(C(=O)N3CCN(C(C)=O)CC3)cn12 | 0% | 1%
CC(C(=O)NCc1ccccc1)n1c(-c2ccc3c(c2)CCO3)nc2ccccc21 (stereo not given) | -16% | -7%
CCOC(=O)c1ccc(O)c(-n2cc3c(c2-c2ccccc2)c(=O)n(C)c(=O)n3C)c1 | -10% | -9%
COCCNC(=O)C1(C)CCCN(Cc2ccccc2N(C)C)C1 (stereo not given) | 7%[18.4 µM] | -8%
CC(=O)Nc1ccc(-c2ccnc3c2CC(C)(C(=O)NCc2ccco2)O3)cc1 (stereo not given) | 7%[18.4 µM] | -4%
COc1ccc(Cc2c(-c3ccccc3)nc3c4ccccc4ccn23)c(C)c1 | -20% | 16%
CC1(C(=O)NS(=O)(=O)c2cccc(OC(F)F)c2)CCN1C(=O)c1ccccc1CCc1ccccc1 (stereo not given) | 3% | -9%
COc1ccc(-c2coc3c(C(=O)NCCN4CCOCC4)cccc23)c(C)c1 | 4%[18.4 µM] | 0%
CC(C)NC(=O)c1ccc(COc2cccc3ccccc23)o1 | -27% | ?
CCCc1cc(=O)oc2cc(OCC(=O)NCCN3CCOCC3)c(Cl)cc12 | -9% | -19%
COc1ccc(C(=O)NC(C)c2ccc(-n3ccnc3)cc2)c(OC)c1 (stereo not given) | 3% | 6%
CCN(CC)c1ncnc2c1ncn2[C@H]1CN(Cc2ccccc2)C[C@@H](CO)O1 | 11% | 1%
O=C1NC[C@@H](CCCCN2CCN(CCc3ccccc3)C(=O)C2=O)N(CCC2CCCCC2)C1=O | -2% | 18%
CCCCN(C=O)c1c(CC)nc2ccc(C(=O)NCCCn3ccnc3)cn12 | -29% | 3%
C[C@H](O)[C@@H]1C(=O)N2CCc3ccc(N4CCOCC4)cc3[C@@H]2C[C@@H]1N(C)C(=O)C(C)(C)C | 5% | -13%
CC(C)Oc1ccccc1/C=N/n1nnnc1N | 8% | -3%
COc1cc(C(=O)N2CCN(S(=O)(=O)c3cc(C)ccc3C)CC2)ccc1OCC(=O)N1CCOCC1 | 0% | -19%
COCCNc1ncnc2c1ncn2[C@H]1CN(Cc2cccs2)C[C@@H](CO)O1 | 12% | -16%
CC(=O)Nc1ccc(C(=O)N2c3ccccc3N=C(c3ccc4c(c3)OCO4)C2C(=O)NCc2ccccc2)cc1 (stereo not given) | 1% | 32%[activator]
CCCCC(=O)N(C)c1c(C)nc2ccc(C(=O)N3CCNC(=O)C3)cn12 | -5% | -19%
CCc1nc2ccc(C(=O)N(C)Cc3ccccc3)cn2c1N(C)Cc1ccc(OC)cc1 | -21%[18.4 µM] | -20%
O=C(CSc1nc2cccc(F)c2c(=O)n1-c1ccccc1)Nc1ccc2c(c1)CCC2 | 9% | -8%
O=c1cc(-c2ccc(O)cc2)oc2c(C3O[C@H](CO)[C@@H](O)[C@H](O)[C@H]3O)c(O)cc(O)c12 (stereo not given in full) | -4%[18.4 µM] | -18%
COc1ccc(-c2csc(NC(=O)CS(=O)(=O)c3ccccc3)n2)cc1OC | 10% | ?
CN(CCc1ccccc1)C(=O)c1ccc(NC(=O)Cc2cccc(NC(=O)C3CCN(C(=O)C4CCCC4)CC3)c2)cc1 | 14% | -16%
CCOC(=O)C1(C)CCCN(C(=O)Cc2ccc3ccccc3c2)C1 (stereo not given) | 15% | -24%
Cc1noc(NS(=O)(=O)c2ccc(NC(=O)c3ccccc3NS(=O)(=O)c3ccc(F)c(F)c3)cc2)c1C | -15% | -11%
CCCCN1CC[C@H]2C=CC[C@@H](C(=O)NCCc3ccccc3)[C@H]2C1=O | 15% | 3%
CC1=C(C(=O)OC(C)C)C(c2ccc(Cl)cc2)n2c(sc(=Cc3ccc(OCC(=O)O)cc3)c2=O)=N1 (stereo not given) | -1% | ?
CCOC(=O)C1=CCN(S(=O)(=O)c2ccc(C)cc2)C1c1ccc(Br)cc1 (stereo not given) | -3% | -21%
C[C@@H]1CN([C@H](C)CO)C(=O)CCCn2nncc2CO[C@H]1CN(C)S(C)(=O)=O | 19% | -3%
CCOC(=O)[C@]12CCCC=C1N(CCC1=CCCCC1)C(=O)[C@H](CC(=O)N1CCC(c3ccccc3)CC1)C2 | -3% | -8%
C=CCNc1nc(NCCOC)c2sc(-c3ccccc3)cc2n1 | -1% | -15%
COc1ccc(NC(=O)[C@@H]2O[C@H](CO)[C@H](O)[C@H](O)[C@H]2O)cc1F | 0% | -12%
CC1(C(=O)Nc2cccc(Oc3ccccc3)c2)Cc2c(-c3ccccc3)ccnc2O1 (stereo not given) | 15% | -9%
CC1(C(=O)NS(=O)(=O)Cc2ccccc2)CCN1C(=O)C1(c2ccc(Cl)cc2)CC1 (stereo not given) | -2%[18.4 µM] | 15%
CCC(CC)C(=O)N(C)c1c(C)nc2c(OCc3ccc(Cl)cc3)cccn12 | -23%[18.4 µM] | ?
CC1(C(=O)NS(=O)(=O)c2ccccc2Cl)CCN1C(=O)Cc1ccc(Cl)cc1Cl (stereo not given) | 8% | 15%
COc1ccc(CN2C(=O)C(CC(=O)NC3CCCCC3)CC(C(=O)N(C)C)=C2C)cc1 (stereo not given) | -34% | -11%
O=C(c1ccc(CS(=O)Cc2cccc(Cl)c2)o1)N1CCN(c2ccc(F)cc2)CC1 (stereo not given) | 1% | -23%
CNc1nc(Oc2ccc3sc(C)nc3c2)c2sccc2n1 | 0% | ?
Cc1ccc2ccc(C(Nc3ccccc3)c3ccc(Cl)cc3)c(O)c2n1 (stereo not given) | -14% | 0%
O=C(NCc1ccncc1)C1Cc2c(-c3ccc4c(c3)OCO4)ccnc2O1 (stereo not given) | -10% | -19%
COC(=O)C[C@H]1c2cc(C(F)(F)F)ccc2S(=O)(=O)N1c1ccc(N(C)C)cc1 | 11% | 5%
COc1ccc(F)cc1-c1cc(C(=O)Nc2cccnc2)[nH]n1 | -9% | 47%[activator]
CN1CCN(C(=O)c2ccc(-c3cc4nc(NCc5cccnc5)n(C)c(=O)c4s3)cc2)CC1 | -24%[18.4 µM] | 32%[activator]
CCN1C(=O)[C@H]2[C@@H](c3ccc(C)cc3)N[C@]3(CCCN(Cc4ccc(Cl)cc4)C3=O)[C@H]2C1=O | 5% | -20%
CC(C)(C)OC(=O)N1CCC(C(=O)Nc2cccc(C(=O)N3CCCC3)c2)CC1 | 5% | -24%
Cc1ccc2nc(-c3ccco3)c(Cc3ccccc3)n2c1 | ? | 0%
COc1ccccc1NS(=O)(=O)c1cc(N/C(=N/S(=O)(=O)c2ccccc2)c2ccc(F)cc2)ccc1Cl | -16% | 32%[activator]
CN(C(=O)c1ccc(NC(=O)Cc2cccc(NC(=O)C3CCCN(C(=O)C4CC4)C3)c2)cc1)C1CC1 (stereo not given) | 0% | 1%
CC1(C(=O)NS(=O)(=O)C2CC2)CCCN(C(=O)c2cccs2)C1 (stereo not given) | 14% | 4%

Single records, from the list above. Order of values: RE007 growth inh	2A StopGo
`CCCc1cc(=O)oc2cc(OCC(=O)NCCN3CCOCC3)c(Cl)cc12` is listed as -9%	-19%
`COc1cc(C(=O)N2CCN(S(=O)(=O)c3cc(C)ccc3C)CC2)ccc1OCC(=O)N1CCOCC1` is listed as 0%	-19%
`O=C(Cc1ccc(NC(=O)C2CCCN(C(=O)C3CCC3)C2)cc1)Nc1cccc(C(=O)N2CCCCC2)c1` (stereo not given) is listed as -1%	-17%
`Cc1ccc(S(=O)(=O)N(C)C[C@H]2Oc3cc(C#CC4CCCC4)ccc3S(=O)(=O)N([C@H](C)CO)C[C@H]2C)cc1` is listed as 10%	30%[activator]
`O=c1cc(-c2ccc(O)cc2)oc2c(C3O[C@H](CO)[C@@H](O)[C@H](O)[C@H]3O)c(O)cc(O)c12` (stereo not given in full) is listed as -4%[18.4 µM]	-18%

Following part:
Structure | RE007 growth inh | 2A StopGo
COc1ccc(OC)c(CN2C(=O)CN(S(C)(=O)=O)CC2(C)C(=O)NCc2ccccc2)c1 (stereo not given) | 6% | -10%
O=C(Nc1ccc(Cl)cc1)N[C@H]1CC[C@H](CCn2cc(-c3ccccc3F)nn2)O[C@@H]1CO | 6% | ?
CC(C)NC(=O)C1(C)CCN1C(=O)C/C=C/c1ccccc1 (stereo not given) | 10%[18.4 µM] | -13%
Cc1cc(F)cc(-c2cc(C(=O)NCC3CCCCC3)[nH]n2)c1 | -14% | 10%
COc1ccc(C=C2CS(=O)(=O)CC(=Cc3ccc(OC)cc3)C2=O)cc1 | ? | 13µM*
CCN1/C(=C/c2ccc3cc(C)ccc3[n+]2CC)Sc2ccc3sccc3c21 | -6% | 35µM*
COC(C[C@@H]1O[C@@H]1C(=O)[C@@H](C)OCc1ccccc1)OC | -8% | -9%
COc1ccccc1-c1cccc(-c2nc(C(=O)N3CCCCC3)cc3c2[C@H](CCO)N(S(=O)C(C)(C)C)C3)c1 (stereo not given in full) | 0% | -9%
CCCNC(=O)C1(C)CCN(C(=O)C2(c3ccc(Cl)cc3)CCCC2)C1 (stereo not given) | 7%[18.4 µM] | -13%
COCCNC(=O)C1(C)CCCN(Cc2cc(C(F)(F)F)ccc2Cl)C1 (stereo not given) | -17% | -27%
COCCN(C(=O)c1ccc2c(c1)C(=O)N(c1ccccc1Cl)C2=O)c1c(N)n(CC(C)C)c(=O)[nH]c1=O | 6% | -11%
COc1ccc(-c2nc3ccc(Br)cn3c2Cc2ccccc2)cc1OC | 5% | -3%
O=C1c2ccc([N+](=O)[O-])cc2C(=O)N1c1ccc([N+](=O)[O-])cn1 | 0% | -27%
COc1ccc(C(=O)N2CCC2(C)C(=O)NC(C)C)cc1 (stereo not given) | 2% | -19%
COC(=O)[C@@H]1N=C(c2ccc(OC)cc2)O[C@]12C(=O)N(C)c1cccc(Cl)c12 | -26% | -12%
COC1=Nc2ccccc2/C=C\c2ccccc21 | 11% | ?
CCc1nc2ccc(C(=O)NCCCN3CCCC3=O)cn2c1N(C)C(=O)COc1ccccc1 | -5% | -11%
CCCCn1nnnc1C1(C)CCC(=O)N1Cc1cccc(F)c1 (stereo not given) | 2% | -9%
Fc1ccccc1CNc1nc(NCC2CC2)nc2ccsc12 | -23%[18.4 µM] | -39%
CCCCC[C@H](C)N1C[C@H](COCc2ccccc2)Oc2cc(N3CCC[C@H]3C(N)=O)ccc2S1(=O)=O | 4% | -2%
CCCS(=O)(=O)NC(=O)C1(C)CCN(C(=O)c2oc3ccccc3c2C)C1 (stereo not given) | -1% | 0%
COC(=O)C[C@@H]1CC[C@@H](NS(=O)(=O)c2ccccc2OC)[C@@H](CO)O1 | 8% | -6%
COc1ccc(CN2C(=O)CSCC2(C)C(=O)Nc2ccc3c(c2)OCCO3)cc1 (stereo not given) | -7% | -16%
COc1ccc(NC(=O)C(c2ccccc2F)n2c(=O)c(-c3cc4ccccc4[nH]3)nc3ccccc32)cc1 (stereo not given) | 7% | -2%
O=C(CN1CCN(C(=O)c2ccccc2Cl)CC1)Nc1cccc(S(=O)(=O)N2CCCC2)c1 | 4% | -17%
O=C(/C=C1\OCc2cc(OCc3ccccc3)ccc21)OCc1ccccc1 | 3% | -9%
COc1ccc(-c2coc3c(C(=O)NCc4cccs4)cccc23)c(C)c1 | 1% | ?
CCOC(=O)[C@]12Cc3c(cc(OC)c(OC)c3OC)[C@H]1N(CCC(=O)OC)C(=O)c1cc(OC)ccc12 | -12% | 28µM*
CC1C(c2ccccc2)OCCN1C(=S)NC(=O)c1ccccc1 (stereo not given) | 10% | -12%
CCCC(C)(C)C(=O)N1CCC1(C)C(=O)Nc1ccc2c(c1)OCCO2 (stereo not given) | 3%[18.4 µM] | -6%
N#CCC(=O)N1CCN(Cc2ccc3c(c2)OCO3)CC1 | -4% | -16%
Cc1ccc(NC(=O)c2cc(S(=O)(=O)NCC3CCCO3)ccc2F)cc1 (stereo not given) | -13% | 18%
CCOC(=O)/C=C/c1cccc(OC)c1O | -30% | 22%
C[C@@H]1CC[C@@]2(O[C@@H](CCO)C[C@@H](O)[C@@H]2O)O1 | 4% | -5%
Cc1cccc(C)c1NC(=O)C(c1ccccc1OC(F)(F)F)N1CCC(c2ccccc2)CC1 (stereo not given) | 1% | -25%

This is a subset. The share of hits here may be higher or lower than overall.
